SmPrx2 inh – Schistosoma mansoni Prx2 inhibition; Potency, µM; S. mansoni Prx2 activity coupled to TGR/GSH (TGR is thioredoxin glutathione reductase), NADPH fluorescence loss, qHTS; some inactives read as strong as hits; 65,000 compounds, 0.07% hits; active means full or partial inhibition curve with a strong effect at the top dose; inconclusive means weaker partial or single-point curve; inactive means no accepted curve; note: series up to 57 µM; many of its hits are not listed in these tables
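Purified S. mansoni TGR and Prx2 in pH 7.4 phosphate buffer with EDTA and Tween-20 were preincubated with compounds for 15 min. Further NADPH/GSH was added, then a 2.5 mM H2O2 aliquot initiated turnover, followed kinetically by NADPH fluorescence.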
LT uptake inh – inhibitors of anthrax lethal toxin internalization. Potency, µM (top dose mostly 40 µM), for inactives: at the highest dose activity change, negative = inhibition, actives largely listed as inhibitors. Cells, anthrax lethal toxin internalization, FRET ratio (460/530). 70,000 compounds, 0.67% hits. AID 912; active = well fitted falling ratio curve with the 530 nm signal flat; inconclusive = other ratio curves, or a change in one channel alone; inactive = flat curves in the ratio and both channels; the % refers to the ratio; note: % is set by controls: 0 for no effect and ±100 for the full control effect; nearly all actives have a fitted effect of over 50% in size; tested in ME-180 cells; beta-lactamase reporter
* = called active by the depositor; [ ] = another dose, or the depositor's remark. Potency is the fitted concentration of half-maximal effect.

CCOc1ccc(-n2c(COc3ccccc3)nnc2SCC(N)=O)cc1 was read as SmPrx2 inh >57 and LT uptake inh 3.5%.
CCc1c(O)c2c(c(O)c1C(C)=O)C(=O)c1c(cc(O)c(C(=O)O)c1C(=O)O)C2=O was read as SmPrx2 inh >57 and LT uptake inh -11.2%[8 µM].
For COc1cccc(NC(=O)c2ccccc2-c2nc(-c3ccc(F)cc3)no2)c1 the results were SmPrx2 inh >57 and LT uptake inh -2.2%.
For CCCC(=O)Nc1cccc(C(=O)Nc2nccs2)c1 the results were SmPrx2 inh >57 and LT uptake inh 0.5%.
For c1csc(-c2nc3nc4ccccc4nc3n2Cc2ccc3c(c2)OCO3)c1 the results were SmPrx2 inh >57 and LT uptake inh inconclusive.
CN1CCN(CC(=O)Nc2sc3c(c2C#N)CCC(C(C)(C)C)C3)CC1 (stereo not given) was read as SmPrx2 inh >57 and LT uptake inh -3.6%.
Cn1c(=O)oc2cc(S(=O)(=O)NCCC(=O)NC3CCCc4ccccc43)ccc21 (stereo not given) was read as SmPrx2 inh >57 and LT uptake inh 12.7%.
`CCn1c(Cc2ccccc2)nnc1SCC(=O)Nc1nc(C)c(C)s1` gave SmPrx2 inh >57 and LT uptake inh -25.0%.
For Cc1ccc(OCCC(=O)OCC(=O)Nc2ccc(Cl)cn2)cc1 the results were SmPrx2 inh >57 and LT uptake inh 3.1%.
Screening COc1ccc(-c2noc(-c3ccccc3C(=O)Nc3cccnc3)n2)cc1 returned SmPrx2 inh >57 and LT uptake inh inconclusive.
For O=C(c1ccco1)N1CCN(C(c2ccccn2)c2nnnn2C2CCCC2)CC1 (stereo not given) the results were SmPrx2 inh >57 and LT uptake inh inconclusive.
Screening CCn1cc(C(=O)Nc2ccc(NC(=O)c3ccco3)cc2)c(=O)c2ccc(C)nc21 returned SmPrx2 inh >57 and LT uptake inh -11.1%.
`COc1ccccc1S(=O)(=O)Cc1ccc(C(=O)N2CCN(c3ccccn3)CC2)o1` gave SmPrx2 inh >57 and LT uptake inh -13.0%.
`NC(=O)c1c(-c2ccccc2)oc2ccc(O)cc12` gave SmPrx2 inh >57 and LT uptake inh 3.7%.
For COc1cccc2cc(C(C)=O)c(=O)oc12 the results were SmPrx2 inh >57 and LT uptake inh -1.8%.
O=C(c1ccc(-c2ccccc2)cc1)N1CCN(c2ncccn2)CC1 was read as SmPrx2 inh >57 and LT uptake inh 0.3%.
CCCCn1c(O)c(C(C)=NCCCN(C)C)c(=O)[nH]c1=O was read as SmPrx2 inh >57 and LT uptake inh -3.8%.
COC(=O)c1cc(OC)c(OC)cc1NC(=O)CCCCCN1C(=O)CCC1=O was read as SmPrx2 inh >57 and LT uptake inh 5.0%.
For CC(C)CC(c1nnnn1C(C)(C)C)N1CCN(C2CCCC2)CC1 (stereo not given) the results were SmPrx2 inh >57 and LT uptake inh -7.6%.
For Cn1c(=O)oc2cc(S(=O)(=O)N3CCCC3)ccc21 the results were SmPrx2 inh >57 and LT uptake inh 2.9%.
CCCc1ccc(C(C)NC(=O)c2cnccn2)cc1 (stereo not given) was read as SmPrx2 inh >57 and LT uptake inh -4.7%.
CC(NC(=O)CC(O)(C(F)(F)F)C(F)(F)F)c1ccccc1 (stereo not given) was read as SmPrx2 inh >57 and LT uptake inh -22.4%.
`O=S(=O)(Nc1nc(CN2CCOCC2)nc2sc3c(c12)CCCC3)c1cc(F)ccc1F` gave SmPrx2 inh >57 and LT uptake inh -2.6%.
CCCOc1ccc(C(=O)N2CCCC2C(=O)O)cc1 (stereo not given) was read as SmPrx2 inh >57 and LT uptake inh -3.8%.
For NCC12CC3CC(C1)CC(CN)(C3)C2 the results were SmPrx2 inh >57 and LT uptake inh -12.5%.
Cc1nc(CNS(=O)(=O)c2ccc(Oc3ccccc3)cc2)cs1 was read as SmPrx2 inh >57 and LT uptake inh -14.8%.
COc1ccc(CNc2cc(-c3ccccc3Cl)ncn2)c(OC)c1 was read as SmPrx2 inh >57 and LT uptake inh -15.9%.
`C#CCN1C(=O)C(O)(CC(=O)c2ccc(OC)c(OC)c2)c2ccccc21` (stereo not given) gave LT uptake inh -20.5%.
COCCNc1nc(-c2ccccc2CN(C)C)nc2ccccc12 was read as SmPrx2 inh >57 and LT uptake inh 1.4%.
Cc1cc(C(=O)CSc2nnc(Cc3ccccc3)o2)c(C)n1Cc1ccc2c(c1)OCO2 was read as SmPrx2 inh >57 and LT uptake inh inconclusive.
COc1ccccc1CNc1ccnc(-c2ccc(C(=O)N(C)C)cc2)n1 was read as SmPrx2 inh >57 and LT uptake inh inconclusive.
Screening O=C(NCC1CCCO1)C1CC(=O)N(C2CCCCCC2)C1 (stereo not given) returned SmPrx2 inh >57 and LT uptake inh 10.3%.
`COc1ccc(N(CC(=O)N2c3ccccc3CC2C)S(=O)(=O)c2c(C)nn(C)c2C)cc1` (stereo not given) gave SmPrx2 inh >57 and LT uptake inh -9.4%.
`Cc1cc(C)c2oc(-c3ccc(Cl)c(NC(=O)c4ccc(C#N)cc4F)c3)nc2c1` gave SmPrx2 inh >57 and LT uptake inh -8.1%.
For COc1cccc(CNn2c(-c3cccc(C)c3)nc3ccccc3c2=O)c1O the results were SmPrx2 inh >57 and LT uptake inh -19.3%.
`O=C(c1cccs1)N1CCN(C(=O)N2CCOCC2)CC1` gave SmPrx2 inh >57 and LT uptake inh -13.7%.
For O=C(CSc1nc(-c2ccco2)cc(C(F)(F)F)n1)NCCc1ccccc1 the results were SmPrx2 inh >57 and LT uptake inh -2.9%.
Screening CSCC[C@H](NC(=O)OC(C)(C)C)c1nnc(SCc2ccc(F)cc2)o1 returned SmPrx2 inh >57 and LT uptake inh -12.0%.
For CCOc1ccccc1NC(=O)N1CCC(NC(=O)c2ccccc2C)CC1 the results were SmPrx2 inh >57 and LT uptake inh 0.4%.
For COc1ccc(OC)c(N=CC2=C(O)CC(C)(C)CC2=O)c1 the results were LT uptake inh -4.6%.

Pulled by structure from above (2):
Screening O=C(NCC1CCCO1)C1CC(=O)N(C2CCCCCC2)C1 (stereo not given) returned SmPrx2 inh >57 and LT uptake inh 10.3%.
Screening CSCC[C@H](NC(=O)OC(C)(C)C)c1nnc(SCc2ccc(F)cc2)o1 returned SmPrx2 inh >57 and LT uptake inh -12.0%.

Compounds listed so far that have fluorine (six):
For COc1cccc(NC(=O)c2ccccc2-c2nc(-c3ccc(F)cc3)no2)c1 the results were SmPrx2 inh >57 and LT uptake inh -2.2%.
CC(NC(=O)CC(O)(C(F)(F)F)C(F)(F)F)c1ccccc1 (stereo not given) was read as SmPrx2 inh >57 and LT uptake inh -22.4%.
`O=S(=O)(Nc1nc(CN2CCOCC2)nc2sc3c(c12)CCCC3)c1cc(F)ccc1F` gave SmPrx2 inh >57 and LT uptake inh -2.6%.
`Cc1cc(C)c2oc(-c3ccc(Cl)c(NC(=O)c4ccc(C#N)cc4F)c3)nc2c1` gave SmPrx2 inh >57 and LT uptake inh -8.1%.
For O=C(CSc1nc(-c2ccco2)cc(C(F)(F)F)n1)NCCc1ccccc1 the results were SmPrx2 inh >57 and LT uptake inh -2.9%.
Screening CSCC[C@H](NC(=O)OC(C)(C)C)c1nnc(SCc2ccc(F)cc2)o1 returned SmPrx2 inh >57 and LT uptake inh -12.0%.

Remaining list, next part.
Screening COc1ccc(NS(=O)(=O)c2ccc(OC)c3ccccc23)cn1 returned SmPrx2 inh >57 and LT uptake inh 2.3%.
Screening COc1cc(OC)c2c(c1)OC(c1ccc(OC)c(OC)c1)C(O)C2=O (stereo not given) returned SmPrx2 inh >57 and LT uptake inh 9.1%.
Screening COC(=O)c1ccccc1Nc1cc(C)nc2nc(C)nn12 returned SmPrx2 inh >57 and LT uptake inh 13.5%.
O=C(COc1cccc(Oc2ccccc2)c1)Nc1ncccn1 was read as SmPrx2 inh >57 and LT uptake inh -36.4%.
Screening COc1cc(C(C)=O)ccc1OCC(O)CNCC1(N2CCCCC2)CCCCC1 (stereo not given) returned SmPrx2 inh >57 and LT uptake inh -2.6%.
For O=C(COc1ccc(S(=O)(=O)N2CCOCC2)cc1)Nc1ccc2c(c1)OCCO2 the results were SmPrx2 inh >57 and LT uptake inh inconclusive.
O=C(NCCc1c[nH]c2ccccc12)c1cnc2sccn2c1=O was read as SmPrx2 inh >57 and LT uptake inh inconclusive.
Screening COc1ccc(C2c3c(-c4ccccc4O)n[nH]c3C(=O)N2CCc2ccc(OC)c(OC)c2)cc1 (stereo not given) returned SmPrx2 inh >57 and LT uptake inh inconclusive.
COc1cc(/C=C(/C#N)c2ccc(F)cc2)ccc1OCc1ccc(C(=O)O)o1 was read as SmPrx2 inh >57 and LT uptake inh inconclusive.
O=S(=O)(Nc1cccnc1)c1cccs1 was read as SmPrx2 inh >57 and LT uptake inh -1.9%.
Screening CCOC(=O)Cn1cc(C(=O)c2cccs2)c2ccccc21 returned SmPrx2 inh >57 and LT uptake inh 6.1%.
COc1ccc(NC(=O)N2CCCC3(CCN(C(=O)c4c(C)noc4C)CC3)C2)cc1 was read as SmPrx2 inh >57 and LT uptake inh -11.6%.
For C=COCCn1c(C)c(C(=O)OCC)c2cc(O)ccc21 the results were SmPrx2 inh >57 and LT uptake inh -14.7%.
For COc1ccc(NC(C)=O)cc1NC(=O)CSc1nnc(-c2ccc(F)cc2)n1N the results were SmPrx2 inh >57 and LT uptake inh -5.4%.
For COc1ccccc1C(=O)N1CCN(CCc2ccccc2)CC1 the results were SmPrx2 inh >57 and LT uptake inh -1.4%.
For COC(=O)C(CC(C)C)NC(=O)CSc1nc(-c2ccccc2)c(C#N)c(=O)[nH]1 (stereo not given) the results were SmPrx2 inh >57 and LT uptake inh 19.3%.
CCOc1ccccc1C(=O)NC1CC2CCCC(C1)N2Cc1nnnn1Cc1ccco1 (stereo not given) was read as SmPrx2 inh >57 and LT uptake inh 2.2%.
Screening Cc1ccsc1C(=O)OC1CCOC1=O (stereo not given) returned SmPrx2 inh >57 and LT uptake inh 11.8%.
Screening O=[N+]([O-])c1cccc2ccccc12 returned LT uptake inh -7.6%.
`CC(=O)Nc1ccc(S(=O)(=O)Nc2ccc(N3CCOCC3)c(F)c2)cc1` gave SmPrx2 inh >57 and LT uptake inh 12.3%.
For Cc1ccc(S(=O)(=O)N2CCCC(c3nnc4n3-c3ccccc3SC4)C2)cc1 (stereo not given) the results were SmPrx2 inh >57 and LT uptake inh inconclusive.
For CC(C)C(OC(=O)C1CCCO1)C(=O)NC1CCCC1 (stereo not given) the results were SmPrx2 inh >57 and LT uptake inh -4.0%.
Screening Cc1cc(=O)n2[nH]c(-c3ccccc3Cl)cc2n1 returned SmPrx2 inh >57 and LT uptake inh -7.7%.
Screening CNC(=O)c1c(I)c(C(=O)NCC(=O)Nc2c(I)c(C(=O)O)c(I)c(C(=O)NCCO)c2I)c(I)c(N(C)C(C)=O)c1I returned SmPrx2 inh >57 and LT uptake inh -5.6%[3.58 µM].
Nc1ccc(Cl)c(NC(=O)c2cccs2)c1 was read as SmPrx2 inh >57 and LT uptake inh -8.9%.
CCOc1ccc(-c2nnc(N)s2)cc1 was read as LT uptake inh -5.1%.
O=C(Cn1c(=O)oc2ccccc21)NC(=O)NCc1ccco1 was read as SmPrx2 inh >57 and LT uptake inh -3.8%.
Screening CC(=O)c1c(COC(=O)c2ccco2)nc2ccccc2[n+]1[O-] returned SmPrx2 inh >57 and LT uptake inh inconclusive.
`CCOC(=O)c1ccc(N2C(=O)C(O)=C(C(C)=O)C2c2ccccn2)cc1` (stereo not given) gave SmPrx2 inh >57 and LT uptake inh 10.6%.
CCOC(=O)c1c(CN2CCC(C)CC2)oc2ccc(OC)cc12 was read as SmPrx2 inh >57 and LT uptake inh -4.3%.
Screening CNc1nc(-c2ccccc2C(F)(F)F)nc2ccccc12 returned SmPrx2 inh >57 and LT uptake inh -4.3%.
Screening CC1=C(C(=O)OCc2ccccc2)C(c2ccccc2OC(F)F)NC(=O)N1 (stereo not given) returned SmPrx2 inh >57 and LT uptake inh -5.9%.
For Cc1ccc(C)c(C(=O)NCCN(C)C)c1 the results were SmPrx2 inh >57 and LT uptake inh 11.3%.
Screening CC1CCC(O)([C@](C)(C(=O)O)c2ccccc2)CC1 (stereo not given in full) returned SmPrx2 inh >57 and LT uptake inh -7.0%[8 µM].
`c1ccc(-c2ccccc2-c2nc(-c3ccncc3)no2)cc1` gave SmPrx2 inh >57 and LT uptake inh -7.8%.
For COc1ccc(C2C(C(=O)c3cccs3)=C(O)C(=O)N2c2nncs2)cc1 (stereo not given) the results were LT uptake inh -0.6%.
For Nc1nnc(-c2cc3ccccc3oc2=O)s1 the results were SmPrx2 inh >57 and LT uptake inh -1.1%.
`C=CCn1c(NC(=O)c2ccc(C)cc2)c(C#N)sc1=N` gave SmPrx2 inh >57 and LT uptake inh inconclusive.
Screening CSc1nsc(SC)c1NC(=O)OCc1ccccc1 returned SmPrx2 inh >57 and LT uptake inh 19.5%.
c1ccc(CSc2nnc(-c3ccncc3)o2)cc1 was read as LT uptake inh -11.3%.
`CSC1=C(C#N)C(c2cccc(Br)c2)CC(=O)N1` (stereo not given) gave SmPrx2 inh >57 and LT uptake inh 11.5%.
`CCOC(=O)C1=C(c2ccccc2)OC(N)=C(C#N)C1C(C)C` (stereo not given) gave SmPrx2 inh >57 and LT uptake inh -5.6%.
For O=C(Nc1nncs1)c1ccc(N2C(=O)C3C4C=CC(C4)C3C2=O)cc1 (stereo not given) the results were SmPrx2 inh >57 and LT uptake inh 5.0%.
Screening CCOC(=O)OCC1OC(C#CC(C)(C)C)C=CC1OC(=O)OCC (stereo not given) returned LT uptake inh -3.8%[8 µM].
Screening Cc1c(C(=O)CN2CCOCC2)[nH]c2ccccc12 returned SmPrx2 inh >57 and LT uptake inh inconclusive.

These rows are one share of the data; the hit share may differ from the screen's.
